Bioassay records: PubChem, Broad Institute
Tgondii IFNg: blocks Toxoplasma gondii growth in the presence of IFN-gamma; Toxoplasma gondii growth in IFN-gamma-treated host cells; hits give low values; reference of the scale not given here; activity change, negative = inhibition, %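 (about 20 µM by stock and volumes)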; actives 3.8% (n = 69,000); AID 1259416;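 active = below -70%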;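 note: host cells are HeLa cells infected with Toxoplasma gondii; parasite growth read as luciferase light; one replicate is shown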
* = called active by the depositor; i = inactive; & = joins results of further samples.

SMILES	Tgondii IFNg
CN1CCN(CC(O)c2ccccc2)CC1 (stereo unspecified)	25
Cc1cc2ncc(C3=NNC(O)(C(F)(F)F)C3)c(C)n2n1 (stereo unspecified)	7
CCn1c(C)nc2cc(NC(=O)Cc3c(C)noc3C)ccc21	-2
O=C(CC1CCc2ccccc21)N1Cc2cnn(CCO)c2C1 (stereo unspecified)	68
Cc1ccc(-c2coc(-c3ccc(NS(=O)(=O)c4cccc(Cl)c4)cc3)n2)cc1C	30
Clc1cc(-c2ccc(/C=N/n3cnnc3)o2)ccc1Br	-42
COc1ccccc1OCc1nc(Cc2ccccc2)n[nH]1	17
Cc1nc(-c2cccc(F)c2)sc1CCNC(=O)COc1ccccc1	11
CC(C)N1CCOCC2(CCCN(C(=O)c3ccc4cc[nH]c4c3)C2)C1 (stereo unspecified)	-3
O=C(CN1CCC(c2nc3ccccc3[nH]2)CC1)Nc1ccc2c(c1)OCO2	8
Cc1[nH]cnc1-c1nccn1Cc1cnn(Cc2ccccc2)c1	0
CC(=O)c1c(C)nn(CC(=O)N2CCC(c3noc(-c4ccncc4)n3)CC2)c1C	-26
CCc1ccc(-c2cc3c(=O)n(Cc4nc(-c5cccc(OC)c5OC)oc4C)ccn3n2)cc1	96
CO[C@@H](CN(C)Cc1ccc(-c2ccccn2)cc1)[C@H](C)CN(C(=O)Nc1ccc(F)cc1)[C@@H](C)CO	61
Cn1ccc(C(=O)NC2CCC23CCN(Cc2ccoc2)CC3)c1 (stereo unspecified)	3
Nc1cc(N)nc(SCc2ccccc2)n1	172
CCc1nc(CN2CCN(c3ncnc4c(C)csc34)CC2)c(C)[nH]1	-9
C[C@H](CO)N1C[C@H](C)[C@@H](CN(C)C(=O)c2cc(-c3ccccc3)on2)OCc2cnnn2CCCC1=O	66
NC(=O)c1cnc2n1CCN(C(=O)c1ccccc1-c1ccccc1)C2	-8
Cc1ccc(CN2CCn3c(Cn4cccn4)cnc3C2)s1	-5
Cc1ccc2occ(C(=O)c3ccco3)c(=O)c2c1	-30
COc1cc(CC(=O)N2CCN3C(=O)CNC(=O)C3C2)cc(OC)c1OC (stereo unspecified)	1
COCCN1C(=O)CCc2cc(NS(=O)(=O)c3ccc(C)c(Cl)c3)ccc21	-25
CC(C)C1CN(C(=O)N2CCOCC2)CCCN1Cc1ccc(F)cc1 (stereo unspecified)	8
Cc1ccc(C)c(NC(=O)c2ccc(-c3nc(CN4CCN(c5ccccc5)CC4)c(C)o3)cc2)c1	-40
CN(C)CCN1C[C@@H]2CN(C(=O)C3CCOC3)C[C@H]2C1=O (stereo partly specified)	89
COc1ccc(-c2nc(CSc3nc4c(=O)[nH]c(C)nc4n3C)c(C)o2)cc1	-1
CN(C)C(=O)N1CCOC2(CCN(S(C)(=O)=O)CC2)c2ccccc21	5
Cc1cc(C)cc(NC(=O)C(=O)N2CCC3(CC2)CN(C)CCN3C)c1	-11
COCC1CN(C(=O)c2cc(C)oc2C)Cc2ncn(CC3CC3)c21 (stereo unspecified)	6
COc1cccc(-c2ccccc2[C@@H]2[C@H](C#N)N(C(=O)c3ccccn3)[C@H]2CO)c1	15
C(=C/c1nccc2c1[nH]c1ccccc12)/c1ccc2c(c1)OCO2	133
Cc1cc(-c2cn[nH]c2C2CCCN(C(=O)c3ccc4c(c3)OCCO4)C2)on1 (stereo unspecified)	-35
O=C1NCC(=O)N2CCN(C3CCN(Cc4ccco4)CC3)CC12 (stereo unspecified)	-6
CCCc1nc(CN(C)C(=O)c2c(O)cccc2O)no1	-1
Cc1n[nH]c(C)c1CCC(=O)N1CCc2c(nc(-c3ccccc3)[nH]c2=O)C1	-2
COc1ccc(CNC(=O)CCC2Nc3c4ccccc4nc(=S)n3C2=O)cc1 (stereo unspecified)	17
CCn1cc(C(CNC(=O)Nc2cc(Cl)c(OC)cc2OC)c2cccnc2)c2ccccc21 (stereo unspecified)	305
Cc1cc(OC(=O)C(c2ccccc2)C2CCCC2)c(Cl)c(C)c1Cl (stereo unspecified)	32
CC1Cc2ccccc2N1C(=O)Cn1nnc(-c2ccccc2F)n1 (stereo unspecified)	-7

The closing 6 records of the part above come first, to join the parts:
SMILES	Tgondii IFNg
CCCc1nc(CN(C)C(=O)c2c(O)cccc2O)no1	-1
Cc1n[nH]c(C)c1CCC(=O)N1CCc2c(nc(-c3ccccc3)[nH]c2=O)C1	-2
COc1ccc(CNC(=O)CCC2Nc3c4ccccc4nc(=S)n3C2=O)cc1 (stereo unspecified)	17
CCn1cc(C(CNC(=O)Nc2cc(Cl)c(OC)cc2OC)c2cccnc2)c2ccccc21 (stereo unspecified)	305
Cc1cc(OC(=O)C(c2ccccc2)C2CCCC2)c(Cl)c(C)c1Cl (stereo unspecified)	32
CC1Cc2ccccc2N1C(=O)Cn1nnc(-c2ccccc2F)n1 (stereo unspecified)	-7
Cc1nc(C)n(C(C)CC(=O)Nc2cc(Cl)cc(Cl)c2)n1 (stereo unspecified)	39
CCOCC(=O)N1Cc2nccn2CC(Cn2cccn2)C1 (stereo unspecified)	2
O=S(=O)(NCCc1ccncc1)c1cc(C(F)(F)F)cc(C(F)(F)F)c1	22
Cc1ccccc1S(=O)(=O)N1C[C@H](O)COC[C@@H]2O[C@H](CC(=O)N3CCCCC3)CC[C@H]21	-31
Cc1ccc(-n2nnc(C(=O)N3CCOCC3)c2N)cc1Cl	100
O=C(Nc1ccc(-c2nc3ccccc3o2)cc1)C1CCCO1 (stereo unspecified)	365
O=S(=O)(CCc1ccccc1)NCCc1csc(-c2ccc(Cl)cc2)n1	10
Cc1ccc(CNC(=O)Cn2ncc3c(N4CCCCC4)ncnc32)o1	-48
Cc1ccccc1NC(=O)C(=O)NCCc1sc(-c2ccccc2)nc1C	-38
COc1ccc(C(=O)N2CC(C(=O)N3CCOCC3)C3(CCOCC3)C2)cc1 (stereo unspecified)	2
Cc1ccc(S(=O)(=O)Cc2csc(NC(=O)CCn3cnnn3)n2)cc1	10
COCCN(C)C(=O)c1ncn2c(C3CCN(C(C)=O)CC3)ccnc12	-40
Cc1ccccc1-c1nc(Cn2nnc(C(=O)Nc3cccc(Cl)c3C)c2C)c(C)o1	271
CC1CCC(NC(=O)N(CCCl)[NH2+][O-])CC1 (stereo unspecified)	73
N#C[C@@H]1[C@H](c2ccc(C3=CCCCC3)cc2)[C@H](CO)N1C(=O)CN1CCOCC1	-16
O=C(C1CCOCC1)N1C[C@@H]2[C@H](c3ccccc31)[C@@H](CO)N2C(=O)Nc1ccccc1F	-1

The closing three compounds of the part above come first, to join the parts.
SMILES	Tgondii IFNg
CC1CCC(NC(=O)N(CCCl)[NH2+][O-])CC1 (stereo unspecified)	73
N#C[C@@H]1[C@H](c2ccc(C3=CCCCC3)cc2)[C@H](CO)N1C(=O)CN1CCOCC1	-16
O=C(C1CCOCC1)N1C[C@@H]2[C@H](c3ccccc31)[C@@H](CO)N2C(=O)Nc1ccccc1F	-1
COc1ccc(-c2cc3c(=O)n(Cc4nc(-c5ccccc5C)oc4C)ccn3n2)cc1OC	7
Cc1nc(Cn2cnc(-c3nc(C(=O)NCc4cc(F)cc(F)c4)c4ccccn34)c2)cs1	-45
COc1ccc(-c2nc(Nc3cccc(Cl)c3C)c3ccccc3n2)cc1	4
C[C@@H]1CCCCO[C@H](CN(C)C(=O)c2ccncc2)[C@@H](C)CN([C@@H](C)CO)C(=O)c2cc(NC(=O)CCC(F)(F)F)ccc2O1	80
O=C(c1cc(=O)n(-c2ccccc2)[nH]1)N1CCCC(CCc2ccc(F)cc2)C1 (stereo unspecified)	7
O=C(CN1CCOCC1)N1CC[C@H]2[C@H](CO)Nc3ccc(Br)cc3[C@H]21	-43
CO[C@@H]1CN(C)C(=O)c2ccc(NC(=O)NC3CCCCC3)cc2OC[C@@H](C)NC[C@H]1C	-45
COc1cccc2c1OC1(CCN(C(C)=O)CC1)N1N=C(c3ccccc3)CC21 (stereo unspecified)	409
Cc1noc(C)c1C(=O)N1CCCn2cnc(COC(C)C)c2C1	-22
CN(Cc1ccoc1)c1ccc(-c2nccn2C)nn1	67
CC(NC(=O)c1cccc(NCc2ccc(F)cc2)c1)c1ncn[nH]1 (stereo unspecified)	4
CCc1cc(CN(C)C(=O)CN2CCOc3ccccc3C2)on1	1
CCOC(=O)c1c(Sc2ccccc2)cnn1C(=O)c1ccc(C(F)(F)F)cc1	-26
C/C=C/c1ccc2c(c1)[C@@H]1[C@@H](CCN1C(=O)c1cnccn1)[C@H](CO)N2	13
O=C(Nc1ccc(Cl)cc1)O/N=C1\CCCCC1Cn1ccnc1 (stereo unspecified)	43
COc1cc(O)ccc1CN1CCN(Cc2cc(C)cc(C)c2)C(=O)C1	4
CC(=O)N1[C@H](CO)[C@H](c2ccc(-c3ccc(C#N)cc3)cc2)C12CN(C(=O)C1CC1)C2	2
Cc1ccc2oc(=O)n(CCc3noc(-c4ccccc4)n3)c2c1	-46
CCCNC(=O)N1[C@H](C#N)[C@@H](c2ccc(C#Cc3cccc(F)c3)cc2)[C@@H]1CO	-39
CCN(CCc1nc2ccc(F)cc2[nH]1)C(=O)CC1C(=O)NCCN1C(C)C (stereo unspecified)	5
CCc1c(C)sc2ncnc(OC3CCCNC3)c12 (stereo unspecified)	-17
N=C1C(c2ccccc2)=C(O)CN1CCCO	-35
O=C(NCc1ccccn1)[C@H]1C[C@H]2CCN(Cc3ccco3)C[C@@H]2O1	3
CN(CCO)Cc1cccc(C(=O)Nc2cccc3c2CCC3)c1	-4
COc1ccc(NC(=O)c2nnn(Cc3nc(-c4ccccc4)oc3C)c2C)cc1OC	i
Cc1ncsc1-c1nc(N)ncc1-c1ccc(F)cc1	11
O=C(C[C@@H]1CC[C@H]2[C@@H](COC[C@@H](O)CN2Cc2cc(F)cc(F)c2)O1)Nc1nccs1	31
Cc1ccnn1CCC(=O)N1CCN(Cc2ccccc2F)C[C@@H]1C(C)C	-36
O=C(O)CCc1ccc(-c2cccs2)[nH]1	30
CCCc1nc(C)c(CNC(=O)c2c(Cl)c(C)nn2C)s1	-37
O=C(NC1CC1)c1ccnc(/C=C/c2ccccc2)c1	102
CC(C)Cc1c(-c2ccccc2)ncn1CCN	3
Cc1cc(C)c2c(CC(=O)NCc3cc(=O)[nH]c(N4CCOCC4)n3)c(C)[nH]c2c1	-4
COc1cccc(S(=O)(=O)N2CCCc3c(OC)nn(C)c3C2)c1	-9
CC(=O)C(Sc1nc(NCc2ccccc2)nc(N(C)C)n1)C(C)=O	11
Cn1cnc(S(=O)(=O)N2C[C@@H]3N[C@H](C2)C3c2ccc(-c3ccccc3F)cc2)c1 (stereo partly specified)	-52&-56
COc1ccc(C(=O)Nc2ccc(-c3nc(Cn4nc(C)cc4C)c(C)o3)cc2)cc1F	114
O=S(=O)(NCc1ccccc1)N1CCCC(OCc2ccccn2)C1 (stereo unspecified)	0
Cc1cccc(C(=O)N2CC[C@H]3[C@H]2CCC(=O)N3c2cnn(C)c2)n1	7
COc1ccccc1CNC(=O)Cn1c(=O)ccc2cc(S(=O)(=O)N3CCCC3)ccc21	20
CCc1nc(C)sc1CNc1nc(CCN)nc2ccccc12	-6
CN(C)C(=O)c1ccc2c(c1)N(C)C(CC(=O)N(C)CCc1cn[nH]c1)CO2 (stereo unspecified)	0
COc1cc2cc(N)c(C3CCN(C(=O)C4CCCO4)CC3)nc2cc1OC (stereo unspecified)	2
Fc1cnc(N2CCO[C@@H]3[C@H]2CC[C@H]3Oc2ccccn2)nc1	-4
Cc1cccc(S(=O)(=O)N2C[C@@H]3C[C@@H](c4nnc(C)o4)O[C@@H]3C2)c1	-2
COc1cccc(-c2nc(C)c(-c3ccc(SCc4ccc(C(F)(F)F)cc4)nn3)s2)c1	-42
Cn1cnc(S(=O)(=O)N2CCC(Cc3cccc(C(=O)O)c3)C2)c1 (stereo unspecified)	-2
CC(C)c1cc(C2CCCN2Cc2c[nH]c3ccccc23)on1 (stereo unspecified)	-24
CC(=O)OCC[N+](C)(C)C	2&9&25
COc1ccc(-c2nc(CNS(=O)(=O)c3ccc(C)cc3C)c(C)o2)cc1	9
O=C(Nc1cccc(F)c1)C1CCC2(CN(CCO)C2)O1 (stereo unspecified)	3
Cc1noc(C)c1NC(=O)N1C[C@H](O)COC[C@@H]2O[C@H](CC(=O)NCC3CC3)CC[C@H]21	-4
Cc1nc(-c2ccc(F)cc2)sc1CCNS(=O)(=O)c1ccccc1	35
COCCOc1c(N)cccc1Cl	-12
CCO[C@H]1CC[C@@H]2[C@@H]1OCCN2C(=O)c1cn2cc(Cl)ccc2n1	5
Cn1ccnc1C(=O)N1CCC2(CC1)CC(NC(C)(C)C)CO2 (stereo unspecified)	4

New compounds follow:
SMILES	Tgondii IFNg
Cc1cccc(Nc2ncnc3c2cnn3-c2cccc(C)c2)c1	-37
C/C=C/c1ccc([C@@H]2[C@@H](CO)N[C@@H]2CN(CC(C)C)C(=O)c2ccccn2)cc1	-43
CCCC(=O)Nc1ccc(-c2nc(-c3ccccc3)co2)cc1	266
CC(=O)Nc1ccc(-c2cn(Cc3ccc(Cl)cc3)nn2)cc1	10
O=S(=O)(NCCc1csc(-c2ccc(Cl)cc2)n1)c1ccccc1F	-20
O=C(NCc1sccc1COc1ccc(Cl)cc1)Nc1cccc(C(F)(F)F)c1	-55
C[C@@H](Cn1c(C(F)(F)F)cc2cccnc21)NC(=O)c1ccccc1	-7
CCOC(=O)c1nn(Cc2ccc(OC)cc2)c2c1CN(C(=O)CCn1nc(C)cc1C)CC2	-17
CS(=O)(=O)N1CCc2sc(C(=O)Nc3ccc(Cl)cc3)cc21	-46
Cn1cccc1C(=O)NCc1cnc2n1CCN(Cc1ccccc1)C2	4

This is a subset. The share of hits here may be higher or lower than overall.
